VDR inh – vitamin D3 receptor (human) inhibition; P11473; VDR-SRC2-3 peptide fluorescence polarization, 2 h; Potency, µM, without a hit: max response, negative = inhibition, actives largely listed as inhibitors; actives 0.93% (n = 400,000); AID 504847; active = well fitted inhibition curve with a large enough effect; note: series mostly up to about 120 µM
Target sequence (P11473 whole entry, looked up): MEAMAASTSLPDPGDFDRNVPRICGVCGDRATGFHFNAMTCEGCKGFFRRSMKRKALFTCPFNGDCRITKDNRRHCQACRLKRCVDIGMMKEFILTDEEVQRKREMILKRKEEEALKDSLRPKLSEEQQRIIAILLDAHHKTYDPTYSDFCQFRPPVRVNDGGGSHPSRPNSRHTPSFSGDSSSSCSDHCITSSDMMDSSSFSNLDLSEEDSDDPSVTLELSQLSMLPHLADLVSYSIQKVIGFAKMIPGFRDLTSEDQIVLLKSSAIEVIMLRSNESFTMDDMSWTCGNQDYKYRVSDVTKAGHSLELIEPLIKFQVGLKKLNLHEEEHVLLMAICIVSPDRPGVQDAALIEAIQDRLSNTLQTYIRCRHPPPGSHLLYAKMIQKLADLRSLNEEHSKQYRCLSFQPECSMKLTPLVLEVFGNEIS
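Inhibition of the VDR/SRC2-3 peptide interaction is quantified by fluorescence polarization. Compounds (23 nl, pintool) incubate with the reagents for 2 hours at ambient room temperature.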
Starred values were filed as active, the others as inactive. % is set by controls: 0 for no effect and ±100 for the full control effect; potency is the fitted concentration of half-maximal effect. This is a subset, so the mix of outcomes need not match the whole.

SMILES	VDR inh
O=C1CC(c2cccs2)Sc2nc3ccccc3n21 (configuration not stated)	-8%
O=C(c1cc(C(F)(F)F)cc(C(F)(F)F)c1)N1CCC[C@@]2(CCN(c3ccncc3)C2)C1	-4%
COc1ccc(N2CCN(c3nc4ccccc4nc3NS(=O)(=O)c3ccccc3)CC2)cc1	-5%
O=C(c1ccc(-n2ccnc2)cc1)N1CCCC(CO)(Cc2cccc(Cl)c2)C1 (configuration not stated)	-3%
O=C(Cn1cncn1)NCc1cc(F)ccc1F	20%
C=CCn1c(=O)c2ccc(C(=O)NCc3ccccc3)cc2n(Cc2cccc(Cl)c2)c1=O	1%
C=CCNC(=S)NCC	-1%
CCOc1cc(C2C(C(=O)c3ccco3)=C(O)C(=O)N2Cc2ccccc2)ccc1O (configuration not stated)	-5%
C=CCn1c(O)c(N=O)c2ccccc21	0%
Cc1ccc(OCCC(=O)N2CCN(c3ccc(O)cc3)CC2)cc1	-7%
CCOc1ccc(Oc2ccc(Cl)cc2N)cc1	-33%
Cc1ccccc1-c1nnc(CN2CCN(C(=O)c3ccco3)CC2)o1	15%
COc1ccc(C(=O)N(c2ccc(OC)cc2)S(=O)(=O)c2ccc3c(c2)n(C)c(=O)n3C)cc1	4%
Cc1ccccc1OCC(=O)NCC(=O)OCC(=O)c1ccc(Br)cc1	1%
c1cncc(-c2ccc3ncnc(NCCN4CCOCC4)c3c2)c1	6%
COc1cccc(NC(=O)Cn2c(=O)n(CCCC(=O)NCc3ccco3)c(=O)c3ccccc32)c1	11%
O=[N+]([O-])c1ccc(/C=N/Nc2nc3ccccc3o2)cc1	11%
CS(=O)(=O)N(CC(=O)N1CCc2ccccc2C1)Cc1ccccc1	-2%
CCNC(=O)NC(=O)CSc1ccc(NC(C)=O)cc1	3%
O=C(COC(=O)c1ccccc1)Nc1cccc(S(=O)(=O)NC2=NCCCCC2)c1	-22%

4 of the compounds above, bar-delimited:
Structure | VDR inh
COc1cccc(NC(=O)Cn2c(=O)n(CCCC(=O)NCc3ccco3)c(=O)c3ccccc32)c1 | 11%
O=[N+]([O-])c1ccc(/C=N/Nc2nc3ccccc3o2)cc1 | 11%
CS(=O)(=O)N(CC(=O)N1CCc2ccccc2C1)Cc1ccccc1 | -2%
CCNC(=O)NC(=O)CSc1ccc(NC(C)=O)cc1 | 3%

Four of these compounds in another layout:
> O=C(COC(=O)c1ccccc1)Nc1cccc(S(=O)(=O)NC2=NCCCCC2)c1
  VDR inh = -22%
> CS(=O)(=O)N(CC(=O)N1CCc2ccccc2C1)Cc1ccccc1
  VDR inh = -2%
> COc1ccc(C(=O)N(c2ccc(OC)cc2)S(=O)(=O)c2ccc3c(c2)n(C)c(=O)n3C)cc1
  VDR inh = 4%
> COc1cccc(NC(=O)Cn2c(=O)n(CCCC(=O)NCc3ccco3)c(=O)c3ccccc32)c1
  VDR inh = 11%

(continued)
SMILES	VDR inh
CCc1ccc(OCC(=O)OCC(=O)c2ccc3c(c2)NC(=O)CO3)cc1	13%
O=C(NCC1CCCO1)c1cc([N+](=O)[O-])ccc1N1CCC(Cc2ccccc2)CC1 (configuration not stated)	-19%
Cc1ccc(NC(=O)Cn2c(=O)c3cccn3c3ccccc32)c(Cl)c1	-3%
Cc1cc(/C=C(/C#N)c2cccc(Cl)c2)c(C)n1C	-7%
Cc1ccc(CN(C(=O)Cc2cccs2)C(C(=O)NC2CCCC2)c2ccncc2)cc1 (configuration not stated)	-2%
O=NC1=C(c2c(O)[nH]c3ccccc23)CCCC1	11%
CC(NC(=O)COC(=O)COc1ccc(C(=O)c2ccccc2)cc1)c1ccccc1 (configuration not stated)	3%
COc1cccc(C2CC(c3cccs3)=NN2C(=O)CSC2=NCCS2)c1OC (configuration not stated)	13%
O=C(Nc1ccc(OC(F)F)cc1)c1ccccn1	3%
O=C(c1ccccc1NS(=O)(=O)c1ccc(F)cc1)N1CCc2ccccc21	-7%
COc1ccc(C(=O)C2CCN(CC(=O)Nc3ccc(C)cc3)CC2)cc1	-17%
Cc1cc(C(=O)CN2C(=O)NC(CCS(C)(=O)=O)C2=O)c(C)n1C1CC1 (configuration not stated)	12%
CCOc1ccc(OCC)c(NC(=O)CSc2nnc(-c3cccnc3)o2)c1	0%
Cc1cccc(NC(=O)c2sc(Cl)nc2-c2ccccc2)c1	-6%
Cc1ccc(-c2nnn(CC(=O)N(Cc3cccs3)C(C(=O)NC3CCCC3)c3ccncc3)n2)cc1 (configuration not stated)	0%
Fc1ccc(NC(=S)N/N=C/c2ccc(F)c(F)c2)cc1	-6%
COc1cccc(CN2CCC(n3nccc3NC(=O)CCOc3ccccc3)CC2)c1O	-4%
O=C(CCN1C(=O)/C(=C\c2ccccc2)SC1=S)N1CCOCC1	27%
Cc1ccc(C(=O)N2CC3(C)CN(C(=O)c4ccc(C)cc4)CC(C)(C2)C3=O)cc1	-7%
Cc1cccc(N2CCN(C(=O)CN3C(=O)NC(C)(C)C3=O)CC2)c1C	0%

Exported in CSV form: three of the compounds above.
structure,VDR inh
CCc1ccc(OCC(=O)OCC(=O)c2ccc3c(c2)NC(=O)CO3)cc1,13%
O=C(NCC1CCCO1)c1cc([N+](=O)[O-])ccc1N1CCC(Cc2ccccc2)CC1 (configuration not stated),-19%
Cc1ccc(NC(=O)Cn2c(=O)c3cccn3c3ccccc32)c(Cl)c1,-3%

The listing continues.
SMILES	VDR inh
O=C(NCc1ccccc1Cl)c1ccc2c(c1)N(Cc1ccccc1)C(=O)CS2	18%
CCc1ccccc1NC(=O)N1CCC(NC(=O)C(Cc2ccccc2)NC(C)=O)CC1 (configuration not stated)	1%
Nc1cc(=O)[nH]c(SCC(=O)c2ccc(O)cc2O)n1	-11%
CC(=O)Nc1sc(C)c(C)c1C(=O)OCC(=O)NCc1ccc(F)cc1	-3%

Bioassay records: PubChem, National Center for Advancing Translational Sciences (NCATS)
